# High-throughput results (PubChem)
# VACV Venus inh – qHTS for Stage-Specific Inhibitors of Vaccinia Orthopoxvirus: Venus Reporter Primary qHTS | Vaccinia virus Venus reporter expression, fluorescence | Potency, µM (doses to about 36.5 µM), for the others: at the top dose activity change, negative = inhibition, actives largely listed as inhibitors | 0.46% of 330,000 active; active means well fitted inhibition curve with a large enough effect; inconclusive means small, poorly fitted or top-dose-only effect; inactive means no such curve, though single readings can be large or run the other way; tested in A549 cells; further: nearly all actives have a fitted effect of over 30% in size; inactives centre near -10
# VACV mCherry inh – qHTS for Stage-Specific Inhibitors of Vaccinia Orthopoxvirus: mCherry Reporter Primary qHTS. Vaccinia virus mCherry reporter infection, fluorescence; about a quarter of the inactives have no number. Potency, µM (top dose mostly 36.5 µM), inactives show at the top dose activity change, negative = inhibition, most hits filed as inhibitors. 0.63% of 310,000 active. AID 720579, 2013; active = well fitted inhibition curve with a large enough effect; inconclusive = small, poorly fitted or top-dose-only effect; inactive = no such curve, though single readings can be large or run the other way; tested in A549 cells; further: nearly all actives have a fitted effect of over 35% in size; inactives centre near -10
# * marks the source's active call; other numbers are inactive results; i = inactive; ? = inconclusive; nt = no result given; & = joins results of further samples; [ ] = another dose, or the depositor's remark. On the % scale 0 is the no-effect control and ±100 the full control effect; potency means the concentration at half of the fitted maximal effect.
SMILES,VACV Venus inh,VACV mCherry inh
O=C(NC1CC1)c1ccc2sc([C@H]3C[C@H](O)[C@@H](CO)O3)nc2c1,6%,12%
CCc1ccc(N(CC)C(=O)Cn2nc(Cc3cccnc3)c3ccccc3c2=O)cc1,-11%,-11%
Cc1noc(-c2ccc(-c3noc(-c4ccc(Cl)cc4)n3)cc2)n1,8%,-3%
O=C(NCCc1ccccc1)c1nc(-c2cccs2)no1,-2%,i
COc1ccc(CCNC(=O)Nc2nc(C(N)COCc3ccccc3)cs2)cc1OC (stereo not drawn),-16%,-7%
C=C1CC[C@@]23CC[C@]4(C)[C@@](OC2=O)([C@@H]3C1)[C@H]1O[C@H]1C1[C@@]2(C)CC[C@H](O)C(C)(C)C2CC[C@]14C (stereo partly drawn),3%,i
Cc1ccc(C2(C)NC(=O)N(CCOc3ccccc3)C2=O)cc1 (stereo not drawn),-14%,nt
CCSc1c(C(=O)NC)ccc2c1C(=O)c1ccccc1C2=O,-11%,nt
CC(C)(C)c1ccc(CN(Cc2ccccc2)C(c2ccccn2)c2nnnn2C(C)(C)C)cc1 (stereo not drawn),-7%,-14%
S=C1NCN(Cc2ccco2)CN1,2%,-8%
O=C(COC(=O)C1CC2C=CC1C2)Nc1ccccc1 (stereo not drawn),-4%,i
C/C(=N\N1CCN(c2ccc(Cl)cc2)CC1)c1ccco1,-10%,-17%

# Continued; the last 5 above are carried over.
SMILES,VACV Venus inh,VACV mCherry inh
CCSc1c(C(=O)NC)ccc2c1C(=O)c1ccccc1C2=O,-11%,nt
CC(C)(C)c1ccc(CN(Cc2ccccc2)C(c2ccccn2)c2nnnn2C(C)(C)C)cc1 (stereo not drawn),-7%,-14%
S=C1NCN(Cc2ccco2)CN1,2%,-8%
O=C(COC(=O)C1CC2C=CC1C2)Nc1ccccc1 (stereo not drawn),-4%,i
C/C(=N\N1CCN(c2ccc(Cl)cc2)CC1)c1ccco1,-10%,-17%
O=C(NOCc1ccccc1)c1cccc([N+](=O)[O-])c1,-5%,i
Cc1ccc(N2CC(C(=O)OCc3ccccc3F)CC2=O)cc1 (stereo not drawn),-5%,nt
COc1ccc(OC(=O)c2cn(-c3cccc(OC)c3)c(=O)c3ccccc23)cc1,-6%,-15%
COc1cc(C(=O)NC(=S)Nc2ccc(Cl)cn2)cc(OC)c1OC,0%[7.34 µM],i[7.34 µM]
CC(C)n1cc(CN2CCCC(C(=O)Nc3cccc(-c4cc5ccccc5[nH]4)c3)C2)cn1 (stereo not drawn),?,11µM*
COc1ccc(NC(=S)NNC(=O)OC(C)(C)C)cc1OC,-9%,i
CCC(CO)Oc1cc(NCc2cc(C)cc(C)c2)c2ncn(C(C)C)c2c1 (stereo not drawn),-17%,?
CN(C)c1ccc(-c2nnn(CC(=O)NCc3ccc4c(c3)OCO4)n2)cc1,-7%,-18%
CCNC(=O)C1(C)CCCN(C(=O)c2cc(C)n(C(C)(C)C)n2)C1 (stereo not drawn),-8%,-14%
CCN1CCN(c2cc(C)c3cc(NC(=O)c4ccc5c(c4)OCO5)ccc3n2)CC1,?,-20%
CC(C)NC(=O)C1C(c2ccc(C(F)(F)F)cc2)=Nc2ccccc2N1C(=O)c1cccc2ccccc12 (stereo not drawn),-15%,-1%
CCOC(=O)c1c(C)n(C)c2ccc(O)c(CN3CCCCC3)c12,-4%,nt
O=S(=O)(c1ccc(Cl)cc1)n1cccn1,-2%,-5%
CNC(=O)CC1C(=O)N(C)C(=S)N1NC(=O)c1ccccc1 (stereo not drawn),-1%,-10%
COCCCNC(=O)CN(c1cc(Cl)ccc1OC)S(C)(=O)=O,-5%,-6%
COc1ccccc1Nc1sc(C(=O)c2ccc(F)cc2)c(N)c1S(=O)(=O)c1ccc(C)cc1,-4%,-21%
CCCNC(=O)C1(C)CCCN(Cc2ccc(Cl)cc2)C1 (stereo not drawn),11%,2%
Cc1cc(OCCCn2cnc3ccccc3c2=O)ccc1[N+](=O)[O-],-6%,-11%
COc1ccccc1CNc1cc(-c2ccccc2)nc2nncn12,-8%,-20%
CCc1ccc(S(=O)(=O)c2cn(CC(=O)Nc3ccc(F)c(Cl)c3)c3ccccc3c2=O)cc1,-25%,-25%
CC(C)Oc1ccc(C(CC(=O)O)NC(=O)CSc2ncn[nH]2)cc1 (stereo not drawn),-9%,i
Cc1cccc(N2CCN(c3ccc(NC(=O)c4ccccc4)cc3C(=O)O)CC2C)c1 (stereo not drawn),2%,-12%
COc1ccc(S(=O)(=O)N(CC(=O)NCc2ccccn2)c2ccc(Cl)cc2)cc1,-15%,-18%
COc1ccc(NC(=O)CCCN(C)S(=O)(=O)c2ccc(C)cc2)cc1,-9%,-11%
CC(=O)c1ccc(OCC(=O)NC2CCS(=O)(=O)C2)cc1 (stereo not drawn),-10%,-2%
Cc1ccc(-c2noc(CN3CCOCC3)n2)cc1,-10%,nt
CCc1ccc(CNC(=O)Cn2ccc3cc(S(=O)(=O)N4CCCCCC4)ccc32)cc1,-24%,i
Cc1ccc(Sc2c(C)nn(C(C)(C)C)c2OC(=O)C(C)(C)C)cc1,11%,-6%
CC(C)C[C@H](NC(=O)[C@@H]1Cc2c([nH]c3ccccc23)C2c3ccccc3C(=O)N21)C(=O)NCC1CCCO1 (stereo partly drawn),1%,1%
Cc1ccc(-c2noc(CCC(=O)N3CCCC3)n2)cc1,-6%,nt
O=C(Cn1c(=O)c2cccn2c2cccnc21)NCc1cccc(F)c1,-5%,-2%
COc1ccccc1NC(=O)CC(=O)CSc1nnc(-c2ccc(C)cc2)n1-c1ccccc1,-6%,-20%
CC(C)(C)C(=O)N(Cc1nc2ccccc2c(=O)[nH]1)Cc1cccs1,-5%,-1%
CCc1nnc(SCC(=O)N(CC)c2ccccc2)c2cc3oc(C)cc3n12,-10%,6%
COc1ccc(NC(=O)C(c2cc3c(cc2[N+](=O)[O-])OCO3)N(C)C)cc1 (stereo not drawn),-5%,-9%
COc1ccc(S(=O)(=O)N(CC(=O)NCc2ccncc2)c2cc(C)cc(C)c2)cc1OC,1%,i

# Gathered by group: those above containing a furan ring, fused or not.
SMILES,VACV Venus inh,VACV mCherry inh
S=C1NCN(Cc2ccco2)CN1,2%,-8%
C/C(=N\N1CCN(c2ccc(Cl)cc2)CC1)c1ccco1,-10%,-17%
CCc1nnc(SCC(=O)N(CC)c2ccccc2)c2cc3oc(C)cc3n12,-10%,6%

# New compounds follow.
SMILES,VACV Venus inh,VACV mCherry inh
CCN(CC(=O)NC1CCS(=O)(=O)C1)S(=O)(=O)c1ccccc1 (stereo not drawn),-10%,i
C=C[C@@H]1c2cc(C)ccc2N(S(=O)(=O)c2ccc(C)cc2)[C@H](c2ccccc2)C1(C#N)C#N,-24%&-8%,-7%
COc1ccc(NC(=O)c2ccc3c(=O)n4nc(Nc5ccccc5C)sc4nc3c2)cc1Cl,?,?
COc1ccccc1NC(=O)N(Cc1nnc2n1CCCCC2)c1ccc(F)cc1,?,?
Cc1cc(NS(=O)(=O)c2ccc(NC(=O)c3cccnc3)cc2)nc(C)n1,-6%,i
CCOc1ccc(CN(C)C(=O)c2ccc3ccccc3n2)cc1,-9%,-11%
Cc1c(C(=O)OCC(=O)N2c3ccccc3CC2C)oc2ccccc12 (stereo not drawn),-13%,-6%
COc1ccc2nc(Cl)cc(Cl)c2c1,-5%,-11%
O=C(CCn1c(=O)sc2ccccc21)NCCCn1ccnc1,-12%,-5%
O=C1Nc2c(Cl)cc(Cl)cc2C1=O,1%,?
COc1cccc(CNC(=O)CN(C)S(=O)(=O)c2ccc3c(c2)c(=O)n(C)c(=O)n3C)c1,-15%&-9%,-2%&-13%
C[C@@]12C(=O)N(c3ccccc3)C(=O)N1[C@@H]1c3ccccc3OC[C@@H]1[C@H]2c1ccccc1,-13%,i
COc1ccc(CCC(=O)NCc2ccc3c(c2)CCN3C(=O)c2ccc(C)cc2)cc1,-11%,-2%
CCc1ccc(CNC(=O)c2ccc(-c3nc(CS(=O)(=O)c4ccccc4)c(C)o3)cc2)cc1,-5%,-16%
CC(C)(C)c1ccc(C(=O)N2CCC(C(=O)NCCC3=CCCCC3)CC2)cc1,-1%,-9%
Cc1cc(C(=O)OCC(=O)N(CC(C)C)c2c(N)n(Cc3ccccc3)c(=O)[nH]c2=O)c(C)o1,-4%,-19%
CC(=O)C1CCC2C3CC(C)C4(O)CC(=O)CCC4(C)C3C(O)CC12C (stereo not drawn),-12%,-1%
Clc1ccc(CSC2=NCCCN2)cc1Cl,-21%,i
Cc1ccc2nc(N(CCCN(C)C)C(=O)c3ccc(S(=O)(=O)N(C)C)cc3)sc2c1,-1%,i
O=C(Nc1cccc(Cl)c1)c1ccc2nc(CCc3ccccc3)oc2c1,-10%,-17%
CC1CCCC(C)N1C(=O)COC(=O)c1ccc2ccccc2n1 (stereo not drawn),-5%,-13%
CC(C)(C)OC(=O)C[C@H]1C/C=C\C[C@@H](CC(=O)NCCO)C(=O)NC[C@@H](c2ccccc2)OC1=O,-18%,i
CCCc1nnc(NC(=O)CS(=O)(=O)c2ccc(C)cc2)s1,-2%,-13%
COc1ccc(C(=O)NCCS(=O)(=O)NCc2ccc(F)cc2)cc1,-7%,-7%
CC(C)(C)OC(=O)C[C@H]1C/C=C\C[C@@H](CC(=O)NCCO)C(=O)NCCOC1=O,-1%,i
CNC(=O)CC(=O)Nc1ccccc1C(=O)O,-7%,nt
Cc1ccc(C)c(OCC(O)CN2CCCCC2C)c1 (stereo not drawn),-9%,nt
Cc1ccc(-c2cnc(SCCNC(=O)c3ccco3)[nH]2)cc1,-17%,-16%
Cc1cccc(-n2ncc3c(N(C)Cc4ccccc4)ncnc32)c1,-21%,i
CCCOc1ccc(C(CC(=O)O)NC(=O)c2ccc3c(c2)OCO3)cc1 (stereo not drawn),1%,-12%
Cc1cc(C)c[n+](C(C)C(=O)c2ccc(-c3ccccc3)cc2)c1 (stereo not drawn),-26%,?
Cc1ccc(N2C(=O)C3CC(c4ccccc4)=C4C5C=CC(C6C(=O)N(c7ccc(C)cc7)C(=O)C56)C4C3C2=O)cc1 (stereo not drawn),-16%,-15%
COCc1c(C(=O)N/N=C(/C)c2cccs2)nnn1-c1nonc1N,4%,5%
CC1=C(C(=O)N2CCCCCC2)CC(CC(=O)NCC2CCCCC2)C(=O)N1Cc1ccccc1 (stereo not drawn),-14%,8%
CSc1ccc(CNC(=O)c2c(C)noc2C)s1,-10%,-14%
CCCCN(C)c1ccc([N+](=O)[O-])cc1,-4%,i

# The list goes on, starting with the last 2 of the part before.
SMILES,VACV Venus inh,VACV mCherry inh
CSc1ccc(CNC(=O)c2c(C)noc2C)s1,-10%,-14%
CCCCN(C)c1ccc([N+](=O)[O-])cc1,-4%,i
O=C(C1CC1)N1N=C(c2ccccc2)CC1(O)C(F)(F)C(F)(F)F (stereo not drawn),-3%,i
CCOC(=O)C1(CCc2ccccc2)CCN(Cc2ccn[nH]2)CC1,-7%,i
COc1ccc(N(C(=O)c2ccc(S(=O)(=O)N3CCCC3)cc2)C2C=CS(=O)(=O)C2)cc1 (stereo not drawn),-12%,-13%
CCOC(=O)C(=CNc1ccccc1N1CCOCC1)C(=O)OCC,-23%[7.34 µM],-8%[7.34 µM]
Fc1cccc(CSc2nc3ccncc3[nH]2)c1,-13%,i
O=C(c1ccc(Cl)cc1)C1CCN(CC(=O)N2CCCCC2)CC1,-7%,-14%
CCOC(=O)n1cc(-c2cnc(CNC(=O)C(C)(c3ccccc3)c3ccccc3)o2)c2ccccc21,-30%,?
Cc1ccc(OCCCCN2CCc3ccccc3C2)cc1,1%,-5%
CCCCCC(=O)N1C[C@@H](O)[C@H](n2cc(COC(=O)c3ccccc3)nn2)C[C@@H]1c1ccc(OC)cc1,-10%,i
Cc1ccc(C)c(NC(=O)C(=O)NCC2CCCN2S(=O)(=O)c2cccs2)c1 (stereo not drawn),-22%,-1%
CCCC(O)(CCC)C(=O)NN(C(=O)OC)c1ccccc1,-11%,-9%
Cc1nc2ccc(S(=O)(=O)NC(CC(C)C)C(=O)NCc3ccc(Cl)cc3)cc2s1 (stereo not drawn),-9%,-14%
OC(c1ccc(CN2CCCCC2)cc1)c1ncc(-c2ccccc2)[nH]1 (stereo not drawn),-2%,-7%
CC(=O)c1c(C)n(CC(=O)NCc2ccc3c(c2)OCO3)c2ccccc12,-24%,-8%
O=[N+]([O-])c1ccc(Cl)c(/C=N/n2c(COc3ccccc3)n[nH]c2=S)c1,-18%,i
CCOC(=O)c1c(C)[nH]c(C(=O)OCC(=O)N(CC(C)C)c2c(N)n(Cc3ccccc3)c(=O)[nH]c2=O)c1C,-17%,-14%
